TRPML1 blocker – qHTS for Inhibitors of the Human Mucolipin Transient Receptor Potential 1 (TRPML1); TRPML1-inducible cells, Ca2+ dye fluorescence, FDSS; stronger effect = lower value; inhibition of EC80 agonist-evoked calcium signal; 0.02% of 390,000 active; activity change, negative = inhibition, % (no concentration beside the values); in the data active means activity change below about -50%; inconclusive means about -30% to -50%; inactive means above about -30%;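 also: stimulus is agonist 54-4 at its EC80 concentration; % is scaled to controls: 0 for no effect and ±100 for the full control effect; compound concentration not given in the record; the text of the record puts the active cut at -80%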
Target sequence (Q9GZU1 whole entry, looked up): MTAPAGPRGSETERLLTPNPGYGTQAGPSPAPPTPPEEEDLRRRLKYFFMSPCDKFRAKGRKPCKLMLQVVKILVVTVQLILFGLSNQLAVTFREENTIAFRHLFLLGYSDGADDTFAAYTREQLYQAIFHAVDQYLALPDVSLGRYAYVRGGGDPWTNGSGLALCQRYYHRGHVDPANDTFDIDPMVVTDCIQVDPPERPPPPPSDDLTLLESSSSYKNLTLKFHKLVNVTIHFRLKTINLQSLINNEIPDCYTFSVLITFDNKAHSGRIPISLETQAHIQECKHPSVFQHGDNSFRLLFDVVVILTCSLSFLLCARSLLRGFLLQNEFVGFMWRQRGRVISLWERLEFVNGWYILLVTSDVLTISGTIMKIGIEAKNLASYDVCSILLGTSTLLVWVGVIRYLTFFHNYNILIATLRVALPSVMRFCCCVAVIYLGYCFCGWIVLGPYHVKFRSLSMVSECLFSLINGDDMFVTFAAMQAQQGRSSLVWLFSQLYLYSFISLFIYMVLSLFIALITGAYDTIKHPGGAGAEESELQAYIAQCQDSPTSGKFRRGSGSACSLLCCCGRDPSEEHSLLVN
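Calcium fluorescence in TRPML1-DL cells induced overnight with Tet: a 110 s read after compound pin addition, then a 110 s antagonist read after challenge with 54-4 at 4 uM final (EC80).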
TRPML1 ag – qHTS for Agonists of the Human Mucolipin Transient Receptor Potential 1 (TRPML1); TRPML1-expressing cells, Ca2+ dye fluorescence, FDSS; host cell line not named in the record; reference of the full effect not given here; 0.12% of 410,000 active; activation, % (test concentration not listed); AID 624414, 2012; in the data active = activation above about 50%; inconclusive = about 30% to 50%; inactive = below about 30%; also: 0% is about no effect; the text of the record puts the active cut at 80%
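TRPML1-DL cells, Tet-induced overnight (~16 h, 37 degrees C), loaded 45-90 min at room temperature with Ca8 no-wash calcium dye plus quencher. FDSS fluorescence: 10 s baseline, compound pin-transfer, 110 s agonist read, then EC80 54-4 (4uM final) and 110 s antagonist read.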
D2 PAM – Beta-Arrestin HTS for Positive Allosteric Modulators of the Human D2 Dopamine Receptor: Potentiators | potentiation, % (concentration not given with the values) | 0.23% of 360,000 active | D(2) dopamine receptor (Homo sapiens), P14416 | AID 624464, 2012 | DiscoveRx D2 beta-arrestin cells, luminescence, 90 min; 100% = 57 uM dopamine signal; active = potentiation of 50% or more; inconclusive = 30% to 50%; inactive = 30% or less;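 also: compound concentration not given in the record; tested on top of an EC20 dose of dopamine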
Target sequence (P14416 whole entry, looked up): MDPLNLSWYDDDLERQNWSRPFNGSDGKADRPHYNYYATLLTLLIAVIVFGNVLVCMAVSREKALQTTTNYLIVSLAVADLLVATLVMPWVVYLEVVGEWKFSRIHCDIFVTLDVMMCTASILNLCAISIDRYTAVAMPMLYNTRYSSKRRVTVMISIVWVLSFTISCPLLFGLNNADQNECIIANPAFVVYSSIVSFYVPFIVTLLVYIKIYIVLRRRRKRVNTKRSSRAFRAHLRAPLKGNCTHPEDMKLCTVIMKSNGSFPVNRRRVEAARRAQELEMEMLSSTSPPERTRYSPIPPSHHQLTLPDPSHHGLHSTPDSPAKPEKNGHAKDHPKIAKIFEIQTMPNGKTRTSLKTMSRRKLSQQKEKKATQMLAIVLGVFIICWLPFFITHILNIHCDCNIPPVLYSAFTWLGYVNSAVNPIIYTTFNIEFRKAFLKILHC
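PathHunter D2 cells, attached overnight at 37 deg C, received compound in DMSO plus dopamine at EC20 (50 nM final) for 90 min at 37 deg C. Beta-arrestin recruitment was read as luminescence after 1 h with detection reagent at ambient temperature.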
PINK1 modulator – A Quantitative High throughput Screen to Identify Chemical Modulators of PINK1 Expression. AID 624263, 2012. PINK1 immunofluorescence, high-content cytometry, 24 h. 0.2% of 410,000 active. Potency, µM (doses to about 76.6 µM), for the others: at the highest dose activation (PINK1 increase), usual class: activators; active = well fitted activation curve with a large enough effect; inconclusive = small, poorly fitted or top-dose-only effect; inactive = flat fitted curve, though single readings scatter; cell line not stated here;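 also: potency is read from the fitted curve at half-maximal effect; % of control where 0% means no effect; nearly all actives have a fitted effect of over 65% in size; a mitochondrial uncoupler was the plate control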
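Stable cell line treated 24 h with compounds at 5 concentrations (CCCP controls), then fixed and immunostained for PINK1 plus nuclear and cell stains; PINK1 immunofluorescence quantified by laser-scanning microplate cytometry.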
D2 agonist – Beta-Arrestin HTS for Positive Allosteric Modulators of the Human D2 Dopamine Receptor: Agonists | D(2) dopamine receptor (Homo sapiens), P14416 | DiscoveRx PathHunter D2 beta-arrestin, luminescence, 90 min; 100% = 57 uM dopamine signal | activation, % (concentration not given with the values) | 0.084% of 360,000 active | AID 624465, 2012; in the data active = activation above about 40%; inconclusive = about 15% to 40%; inactive = below about 15%; also: compound concentration not given in the record; the text of the record calls up to 30% inactive
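DiscoveRx PathHunter D2 beta-arrestin cells (2,100/well) attached overnight, then compound-stimulated 90 min at 37 C in HBSS/10 mM HEPES/0.1% Tween-20 buffer; beta-galactosidase complementation read by luminescence after 1 h at ambient temperature. Dopamine 57 uM final (EC100) as control.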
Six1-Eya2 blk – qHTS Assay for Inhibitors of the Six1/Eya2 Interaction. Homeobox protein SIX1 (Homo sapiens) + Protein phosphatase EYA2 (Homo sapiens), …. AlphaScreen GST-Six1/His-Eya2 binding, biochemical; stronger effect = lower value; control for the full effect not named in the record. activity change, % (concentration not given with the values). 0.56% of 360,000 active. AID 651725, 2012; in the data active = activity change below about -65%; inconclusive = about -30% to -65%; inactive = above about -30%; also: % is scaled to controls: 0 for no effect and ±100 for the full control effect
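AlphaScreen luminescence read after one hour at 37 °C in darkness. Pin-transferred compounds met GST-Six1 and His-Eya2 protein (5X stock 250 nM/500 nM) plus glutathione donor and Ni-chelate acceptor beads (5X, 50 ug/mL).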
The depositor's hits bear a star; ? = inconclusive; nt = no result given; & = joins results of further samples; [ ] = another dose, or the depositor's remark.

SMILES	TRPML1 blocker	TRPML1 ag	D2 PAM	PINK1 modulator	D2 agonist	Six1-Eya2 blk
O=C1OCCN1C(=O)[C@H]1[C@H](c2ccc(Cl)cc2)C(c2ccc(F)cc2)=NN1c1ccc(Br)cc1	-8	-0.1	nt	3.7%	0.4	31
CC(C)(C)NC(=O)CSC(=Nc1ccc(F)cc1)NC#N	7	0.1	-4	1.1%	-2.0	0
CCC(C)(C(=O)NC1CCCC1)N(CC1CCCO1)C(=O)CNC(=O)c1ccccc1 (stereo unspecified)	-3	2.1	1	-0.1%	-3.3	5
Cc1cccc(CCNC(=O)CN(c2ccc(C(C)C)cc2)S(=O)(=O)c2c(C)nn(C)c2C)c1	33	2.0	nt	-0.7%	nt	nt
CCOC(=O)C1(Cc2cccc(F)c2)CCN(Cc2cnn(CC)c2C)CC1	18	-0.4	-15	-2.9%	0.2	30
CCOC(=O)C1CCN(C(=O)c2c(-c3c(Cl)cccc3Cl)noc2C)CC1	-11	1.0	5	-2.4%	-3.1	8
O=C(NC12CC3CC(CC(C3)C1)C2)c1cc([N+](=O)[O-])ccc1Cl	62	2.3	1	1.0%	1.4	8
COc1ccc(C(=O)C(Cc2cc(C(C)=O)ccc2OC)N2CCCC2)cc1 (stereo unspecified)	-2	-0.8	-12	1.2%	-2.2	8
Cc1ccc(CSc2nc3nc(C)cc(C)n3n2)cc1	-9	-1.3	-11	2.5%	2.2	2
Cc1cc(C)n2nc(SC(C)C(=O)N3CC(C)OC(C)C3)nc2n1 (stereo unspecified)	-14	1.0	7	-3.3%	-0.7	0
CCN(CC)C(=O)C1=C(C)N(CCCOC)C(=O)C(CC(=O)NCCN2CCOCC2)C1 (stereo unspecified)	-3	-0.3	-1	1.9%	-7.1	25
CC(=O)N1CCC2(CC1)CC(=O)c1cc(OCC(=O)NCc3ccco3)ccc1O2	-5	0.1	0	0.5%[38.3 µM]	-3.2	1
CCN(c1cccc(C)c1)S(=O)(=O)c1ccc2c(c1)oc(=O)n2C	12	-1.7	-5	9.6%	-3.6	0
Cc1ccc(C(C)C)c(OCc2ccc(C(=O)N/N=C/c3ccc(O)c(O)c3)cc2)c1	-16	1.6	?	?	14	-20
CC(=O)Nc1ccc(S(=O)(=O)NCCc2ccccn2)cc1	-11	-0.7	-12	0.1%	-1.8	6
COc1ccc(C(C)(C)C)cc1NC(=O)CSc1ncn[nH]1	-14	1.0	8	5.6%	-3.0	7
COc1cccc(NC(=O)COc2cccc(-n3cnnn3)c2)c1	-13	2.1	-11	-0.4%	-18	3
COC(=O)[C@@]1(Cc2ccc(OC)cc2)[C@H]2c3cc(C(=O)N(C)C)n(C[C@H](O)CO)c3C[C@H]2CN1C(=O)c1ccccc1	-7	0.3	-3	0.1%	-2.4	5
CCCCn1c(N)c(N(CCOC)C(=O)CSCc2cccc(C)c2)c(=O)[nH]c1=O	2	0.1	-1	-1.9%	-0.4	4
Cc1ccnc(N2CCC(C(=O)Nc3ccc(Oc4ccccc4)cc3)CC2)n1	10	-0.5	-15	7.4%	-2.1	9
Cc1ccc(S(=O)(=O)N(c2cccc(C(F)(F)F)c2)C2C=CS(=O)(=O)C2)cc1 (stereo unspecified)	-2	-0.4	5	nt	-2.9	6
CC(=O)Oc1cc2c(C(C)=O)coc2c2ccccc12	43	-0.6	6	-1.1%	-3.0	0
COc1ccc(-c2nnc(SCC(=O)NCCc3ccc(S(N)(=O)=O)cc3)o2)cc1OC	19	0.8	-10	0.5%	-1.0	0
COc1ccc(NC(=O)/C(=C\c2ccc3c(c2)OCO3)NC(C)=O)cc1	5	-1.1	-6	-1.3%	-1.4	-14
CSc1nccc(Oc2ccccc2Cl)n1	-12	0.5	-6	2.3%	-3.3	14
NC(=O)c1cccc(-c2cnc3c(Nc4cccc(OC(F)(F)C(F)F)c4)nccn23)c1	nt	-0.7	1	-0.4%	?	-23
Cc1ccc(N2C(=O)c3ccccc3C2Nc2ccc(S(=O)(=O)N3CCCCC3)cc2)nc1 (stereo unspecified)	7	0.1	-3	-1.3%	-2.0	-12
S=C(Nc1ccc(Br)cc1Cl)N1CCC2(CC1)OCCO2	2	-0.6	-10	1.8%	-13	0
O=C(CSc1n[nH]c(-c2ccncc2)n1)NC1CCS(=O)(=O)C1 (stereo unspecified)	-1	0.0	5	-3.3%	-4.5	-1
Cn1nc(C(=O)N2CCCCC2)c2c1-c1ccccc1S(=O)(=O)C2	7	-0.2	-1	-0.2%	-5.2	0
COc1ccc(CC(=O)N/N=C(\C)CC(=O)NCc2ccco2)cc1OC	0	1.6	-6	0.9%	0.0	-1
CCN1/C(=C/C=C2/SC(=Nc3cccc4ncccc34)N(C)C2=O)Sc2ccccc21	19	6.4	-1	3.5%	-1.3	9
O=[N+]([O-])c1cc(/C=N/O)ccc1SCc1ccccc1	-6	2.1	-3	1.2%	0.0	15
CCc1ccc(N(CC)C(=O)c2cn(C)c(=O)c3cc(OC)c(OC)cc23)cc1	-5	-0.1	nt	-0.7%	nt	nt
Cc1ccc(Cl)cc1N1CCN(S(=O)(=O)c2ccc3oc(=O)c4ncn(C)c4c3c2)CC1	-17	-0.2	nt	0.0%	nt	nt
COc1ccc(C(C)(O)c2nc(-c3ccncc3)cs2)cc1 (stereo unspecified)	nt	-0.7	-7	7.3%	2.9	-8
CC(=O)Nc1ccc(C(=O)OC2CCOC2=O)cc1 (stereo unspecified)	0	-0.8	14	4.8%	-0.5	0
CC(c1nccs1)N(C)c1nc2nonc2nc1N(C)C (stereo unspecified)	1	0.1	-4	0.8%	-2.4	6
C=CCNC(=S)NCc1cccnc1	34	0.3	6	-0.6%	-0.4	20
CC(=O)SC(C[N+](=O)[O-])c1cn(C(C)=O)c2ccccc12 (stereo unspecified)	0	1.2	2	-4.8%	-2.9	-5
O=C(CNC(=O)c1cccs1)N/N=C/c1ccc(Cl)cc1	-3	-0.3	-7	1.5%	-5.6	-2
Cc1ccc(S(=O)(=O)CCC(=O)N2CCN(c3ccc(Cl)cc3)CC2)cc1	5	0.1	-11	0.4%[38.3 µM]	-1.3	-4
Cc1cc(S(=O)(=O)N2CCOCC2)ccc1F	-1	-0.4	-16	-0.4%	-3.4	-1
Cc1ccc(SCC(=O)OC(C)C(=O)NCc2ccccc2)cc1 (stereo unspecified)	-4	0.5	-19	1.8%	-7.3	3
CC(C)(C)c1cc(Br)ccc1OCC(=O)Nc1ncn[nH]1	36	1.8	-11	-0.6%	-1.3	-1
Cc1[nH]nc(C(=O)NN=Cc2ccccc2Cl)c1N=NN(C)C	-16	-0.2	9	-1.1%	8.6	4
COc1ccc(/C=C(/NC(=O)c2ccco2)C(=O)NCc2ccco2)cc1OC	4	0.5	-2	5.2%	-1.7	5
Cc1ccc(-c2nnc(-c3ccc4ccccc4c3)o2)cc1	-2	1.3	-11	6.9%	-2.2	3
O=C(CSc1nc(=O)n2ccccc2n1)NCc1ccc2c(c1)OCO2	2	0.1	6	1.3%	0.9	-1
COc1ccc(C(C)=O)cc1COC(=O)CCNS(=O)(=O)c1ccc(C(C)=O)cc1	-16	0.9	-1	0.6%	-0.7	2
O=C(CCN=C1NS(=O)(=O)c2ccccc21)Nc1ccc(F)cc1Cl	20	-1.5	-21	2.0%	-3.2	-20
COc1cccc(/C=N/NC(=S)NCc2ccco2)c1OC	-1	1.5	-16	1.7%	-0.4	-1
CC(C)=C(NC(=O)c1ccccc1)C(=O)N/N=C(\C)c1ccccc1O	-5	0.0	-28	13%	-1.2	6
O=C(/C=C/c1ccccc1)NCc1ccco1	4	-0.2	-2	-0.1%	-5.6	-6
Cc1ccsc1CNS(=O)(=O)c1ccc(F)cc1	-3	1.8	-8	-0.9%	1.8	5
CC(C)CCN1CCC(CN2C(=O)C(=O)NC[C@@H]2CC(C)C)CC1	nt	-0.2	-5	0.2%	-4.5	4
CCN(CC)C(=O)c1cc(-c2ccc(Cl)cc2)on1	34	-0.2	nt	-1.3%	nt	nt
CCOc1ccc(CCNC(=O)c2ccc(=O)[nH]c2)cc1OCC	3	0.1	-6	-1.2%	-5.8	-8
COC(=O)C1C(c2ccccc2)C(C(=O)O)C1c1ccccc1 (stereo unspecified)	23	-0.6	0	0.2%	1.7	-8
O=C(O)c1ccc(N/N=C/c2ccnc3ccccc23)cc1	-14	0.1	-5	-0.8%	-8.1	-20

Among those listed so far, 2 contain a thiophene ring, fused or not.
SMILES	TRPML1 blocker	TRPML1 ag	D2 PAM	PINK1 modulator	D2 agonist	Six1-Eya2 blk
O=C(CNC(=O)c1cccs1)N/N=C/c1ccc(Cl)cc1	-3	-0.3	-7	1.5%	-5.6	-2
Cc1ccsc1CNS(=O)(=O)c1ccc(F)cc1	-3	1.8	-8	-0.9%	1.8	5

Next results
SMILES	TRPML1 blocker	TRPML1 ag	D2 PAM	PINK1 modulator	D2 agonist	Six1-Eya2 blk
O=C(NN1C(=O)c2cc(Br)ccc2NC1c1cc(Br)cc(Br)c1O)c1ccncc1 (stereo unspecified)	3	-0.1	-20	1.3%	-7.7	0
Cc1ccc(-n2c(=O)c(C#N)cc3c(=O)n4ccccc4nc32)cc1C	-1	0.0	-9	9.5%[38.3 µM]	-2.3	0
Cc1ccc(-c2cc(C(=O)N3CCCC(C(F)(F)F)C3)c3ccccc3n2)o1 (stereo unspecified)	4	0.7	-6	-1.5%	-1.0	1
Cc1ccc(SCc2c(C(=O)N/N=C/c3ccc(C)o3)nnn2-c2nonc2N)cc1	-5	-0.2	-22	3.1%	-1.3	-10
CN(C)S(=O)(=O)c1ccc(N2CCCC2)c(C(=O)Nc2ccccc2N2CCOCC2)c1	9	0.7	-11	1.9%	-3.9	-2
O=C(CCn1nc(-c2ccc(Cl)cc2)ccc1=O)N1CCN(c2ccccc2)CC1	32	0.0	-6	0.8%	1.8	-4
CN(Cc1ccco1)S(=O)(=O)c1nnc(NC(=O)c2ccccc2)s1	2&35	-0.4&1.0	5	-0.4%&2.9%	-1.5	-2
CCN(Cc1ccc(N(C)C)cc1)C(C)C(=O)Nc1ccc(S(=O)(=O)N2CCCC2)cc1 (stereo unspecified)	11	2.6	-3	1.0%	2.0	?
Cc1nnc(SCc2ccccc2)c2cc3sccc3n12	42	2.3	nt	1.0%	nt	nt
N#CCCn1cc(/C=N/NC(N)=S)c(-c2ccc(Br)cc2)n1	-8	1.0	-7	0.1%	-2.2	-5
CCc1ccc(OCc2nnc(SCCN3CCOCC3)n2CC)cc1	3	0.4	-5	-2.2%	-1.4	5
O=C(Nc1ccc(F)cc1)c1oc2ccccc2c1NC(=O)C12CC3CC(CC(C3)C1)C2	-16	-1.1	nt	-0.3%	nt	nt

Bioassay records (PubChem BioAssay)
